# HIV Env fusion – blocks HIV Env-driven cell-cell fusion | HeLa-JRFL Env/CEM21 cell fusion, luciferase | 1.1% of 360,000 active | inhibition, % at 12.3 µM | AID 651610;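 active means mean replicate inhibition score of at least 50 and every replicate individually at or above 50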;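 further: 0% = plate neutral controls and 100% = maraviroc near 300 nM; one replicate is shown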
# UUG fidelity – alters start codon recognition fidelity in yeast; S. cerevisiae UUG-firefly luciferase reporter, luminescence/redox ratio; activity score, % at 18.7 µM; 0.13% of 350,000 active; AID 602363;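 active means replicate mean at a twofold rise or more, about +100% in these data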;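 further: firefly luciferase made from a UUG start codon reports start codon fidelity; reporter light over untreated wells divided by growth signal over untreated wells; some hits fall short of that in this replicate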
# * marks the source's active call; other numbers are inactive results; [ ] = remark or other dose.
UUG fidelity	HIV Env fusion	Molecule
-5	-22[16.7 µM]	C[C@@H]1CN([C@@H](C)CO)S(=O)(=O)c2ccc(C#Cc3ccc(F)cc3)cc2O[C@@H]1CN(C)C(=O)NC1CCCC1
-4	9[16.7 µM]	CC(=O)N(C)C[C@@H]1Oc2cc(C#CC3CC3)ccc2S(=O)(=O)N([C@@H](C)CO)C[C@H]1C
7	34[16.7 µM]	C[C@H]1CN([C@@H](C)CO)C(=O)c2cc(NC(=O)Nc3ccccc3)ccc2O[C@H]1CN(C)Cc1ccc(Cl)c(Cl)c1
-10	39[16.7 µM]	O=C(NCC[C@H]1CC[C@@H](NS(=O)(=O)c2ccc(F)cc2)[C@@H](CO)O1)Nc1ccc(F)cc1
6	-13[16.7 µM]	Cc1noc(C)c1NC(=O)Nc1ccc2c(c1)C(=O)N([C@H](C)CO)C[C@H](C)[C@H](CN(C)C(=O)NC(C)C)OCCCC[C@@H](C)O2
-2	-6[16.7 µM]	COc1ccc(S(=O)(=O)Nc2ccc3c(c2)C(=O)N([C@H](C)CO)C[C@@H](C)[C@@H](CN(C)C(=O)Nc2ccc(C(F)(F)F)cc2)O3)cc1
-12	9[16.7 µM]	C[C@@H]1CN([C@H](C)CO)C(=O)c2cc(C3=CCCC3)cnc2O[C@H]1CN(C)C
1	-39[16.7 µM]	CO[C@@H]1CN(C)C(=O)c2cc(NS(=O)(=O)c3ccc(-c4ccccc4)cc3)ccc2OC[C@H](C)NC[C@H]1C
15	20[16.7 µM]	C[C@H]1CN([C@@H](C)CO)C(=O)c2cc(NC(=O)NC3CCCCC3)ccc2O[C@H]1CN(C)C(=O)Nc1ccccc1
-6	27[16.7 µM]	C[C@@H]1CN([C@H](C)CO)S(=O)(=O)c2ccc(-c3cccc(C#N)c3)cc2O[C@@H]1CN(C)C(=O)C1CC1
7	-9[16.7 µM]	C[C@H]1CN([C@@H](C)CO)S(=O)(=O)c2ccc(-c3ccc(F)cc3)cc2O[C@@H]1CN(C)C(=O)Nc1ccccc1F
-14	12[16.7 µM]	O=C(C[C@@H]1C=C[C@H](NC(=O)C2CC2)[C@H](CO)O1)Nc1ccccc1
-10	6[16.7 µM]	CO[C@@H]1CN(C)C(=O)c2ccc(NC(=O)c3cccc(F)c3)cc2OC[C@H](C)NC[C@@H]1C
30	5[16.7 µM]	C[C@H]1CCCCO[C@H](CN(C)S(C)(=O)=O)[C@@H](C)CN([C@@H](C)CO)C(=O)c2cc(NS(=O)(=O)c3ccccc3)ccc2O1
12	5[16.7 µM]	CO[C@H]1CN(C)C(=O)c2ccc(NC(=O)c3ccccc3)cc2OC[C@H](C)N(C(=O)CN(C)C)C[C@H]1C
2	-14[16.7 µM]	Cc1noc(C)c1NC(=O)Nc1ccc2c(c1)CC(=O)N([C@H](C)CO)C[C@H](C)[C@@H](CN(C)Cc1ccc3c(c1)OCO3)O2
10	33[16.7 µM]	CN(C)Cc1cn(CC[C@H]2CC[C@H](NS(=O)(=O)c3ccc(-c4ccccc4)cc3)[C@H](CO)O2)nn1
5	-4[16.7 µM]	C[C@H]1CN([C@@H](C)CO)C(=O)c2cc(NS(=O)(=O)c3cccs3)ccc2O[C@H]1CN(C)S(=O)(=O)c1cn(C)cn1
1	-9[16.7 µM]	C[C@@H]1CCCCO[C@@H](CN(C)S(=O)(=O)c2ccccc2)[C@@H](C)CN([C@H](C)CO)C(=O)c2cc(NS(C)(=O)=O)ccc2O1
6	-12[16.7 µM]	Cc1ccc(S(=O)(=O)Nc2cccc3c2O[C@@H](CN(C)S(=O)(=O)c2ccccc2)[C@@H](C)CN([C@@H](C)CO)C3=O)cc1
10	9[16.7 µM]	C[C@@H]1CN([C@@H](C)CO)C(=O)c2cc(NC(=O)c3ccncc3)ccc2O[C@H]1CN(C)CC1CCCCC1
2	6[16.7 µM]	COc1ccc(NC(=O)N[C@@H]2CC[C@@H](CCNS(=O)(=O)c3cccc(Cl)c3)O[C@H]2CO)cc1
-16	-1[16.7 µM]	N#C[C@H]1[C@@H](c2ccc(C#Cc3cccc(F)c3)cc2)[C@H](CO)N1C(=O)C1CCCC1
-6	-22[16.7 µM]	Cc1noc(C)c1S(=O)(=O)Nc1ccc2c(c1)C(=O)N([C@H](C)CO)C[C@@H](C)[C@H](CN(C)Cc1ccc(Cl)c(Cl)c1)O2
3	-12[16.7 µM]	C[C@H]1CN([C@@H](C)CO)S(=O)(=O)c2ccc(C#CC(C)(C)O)cc2O[C@@H]1CN(C)C
17	0[16.7 µM]	CCS(=O)(=O)Nc1ccc2c(c1)C(=O)N(C)[C@H]1CC[C@@H](CC(=O)Nc3ccccc3)O[C@H]1CO2
-3	18[16.7 µM]	[N-]=[N+]=Nc1ccccc1C[C@]1(C(=O)N2CCOCC2)N=C(c2ccc(OCCCO)cc2)O[C@H]1c1ccccc1
-14	2[16.7 µM]	COCCNC(=O)C[C@H]1C[C@H]2c3cc(NC(=O)Nc4ccc(F)cc4)ccc3O[C@H]2[C@H](CO)O1
0	19[16.7 µM]	Cc1ccc(S(=O)(=O)Nc2ccc3c(c2)CC(=O)N([C@H](C)CO)C[C@@H](C)[C@H](CN(C)C(=O)Nc2c(C)noc2C)O3)cc1
-1	-99[16.7 µM]	Cc1noc(C)c1NC(=O)Nc1ccc2c(c1)C(=O)N([C@@H](C)CO)C[C@@H](C)[C@@H](CN(C)S(=O)(=O)c1ccccc1)OCCCC[C@@H](C)O2
-2	12[16.7 µM]	COc1ccc(-c2cnc3c(c2)C(=O)N([C@H](C)CO)C[C@@H](C)[C@@H](CN(C)Cc2cccnc2)O3)cc1
-12	-11[16.7 µM]	C[C@H](CO)N1C[C@H](C)[C@@H](CN(C)CC2CC2)Oc2cc(-c3cncnc3)ccc2S1(=O)=O
-7	-1[16.7 µM]	C[C@H](CO)N1C[C@H](C)[C@H](CN(C)C(=O)Nc2ccccc2)Oc2ccc(NC(=O)Cc3cn(C)c4ccccc34)cc2C1=O
-26	10[16.7 µM]	CCS(=O)(=O)Nc1ccc2c(c1)C(=O)N(C)C[C@@H](OC)[C@H](C)CN[C@@H](C)CO2
8	17[16.7 µM]	CC(C)NC(=O)Nc1ccc2c(c1)CC(=O)N([C@H](C)CO)C[C@@H](C)[C@@H](CN(C)Cc1ccc(-c3ccccc3)cc1)O2
-11	3[16.7 µM]	C[C@@H]1CCCCO[C@H](CN(C)C(=O)Nc2ccc(F)cc2)[C@H](C)CN([C@@H](C)CO)C(=O)c2cc(NC(=O)Nc3ccc(C(F)(F)F)cc3)ccc2O1
-7	15[16.7 µM]	N#C[C@@H]1[C@@H](c2ccc(C#CC3CCCC3)cc2)[C@H](CO)N1S(=O)(=O)c1ccccc1
-8	22[16.7 µM]	C[C@H]1CN([C@@H](C)CO)S(=O)(=O)c2ccc(-c3cccc(C#N)c3)cc2O[C@H]1CN(C)C
-9	-3[16.7 µM]	COCCNC(=O)C[C@H]1C=C[C@H](NC(=O)NC2CCCC2)[C@H](CO)O1
14	-2[16.7 µM]	C[C@@H]1CCCCO[C@H](CN(C)CC2CC2)[C@H](C)CN([C@@H](C)CO)C(=O)c2cc(NC(=O)Nc3ccc(F)cc3)ccc2O1
0	-12[16.7 µM]	O=C(C[C@H]1C=C[C@H](NC(=O)Nc2ccc(C(F)(F)F)cc2)[C@@H](CO)O1)NCc1cc(F)cc(F)c1
-1	5[16.7 µM]	Cc1ccc(S(=O)(=O)Nc2ccc3c(c2)CC(=O)N([C@@H](C)CO)C[C@H](C)[C@H](CN(C)S(=O)(=O)c2ccc(Cl)cc2)O3)cc1
-4	22[16.7 µM]	CC(C)CC#Cc1cnc2c(c1)C(=O)N([C@@H](C)CO)C[C@@H](C)[C@H](CN(C)C(=O)c1ccc(F)cc1)O2
17	-41[16.7 µM]	C[C@H]1CN([C@@H](C)CO)C(=O)c2cc(C#Cc3ccccc3)cnc2O[C@@H]1CN(C)S(=O)(=O)c1ccccc1F
1	-8[16.7 µM]	CC(C)NC(=O)N(C)C[C@@H]1Oc2c(NC(=O)NC3CCCCC3)cccc2C(=O)N([C@H](C)CO)C[C@H]1C
7	-14[16.7 µM]	C[C@@H]1CN([C@H](C)CO)C(=O)c2cc(NS(=O)(=O)c3ccc(Cl)cc3)ccc2O[C@H]1CN(C)Cc1ccc(-c2ccccc2)cc1
-5	-20[16.7 µM]	C[C@H](CO)N1C[C@H](C)[C@H](CN(C)Cc2ccc(C(=O)O)cc2)Oc2c(NC(=O)Nc3ccc4c(c3)OCO4)cccc2C1=O
14	-7[16.7 µM]	C[C@H](CO)N1C[C@H](C)[C@@H](CN(C)C(=O)CCCN(C)C)OCCCC[C@H](C)Oc2ccc(NC(=O)NC3CCCCC3)cc2C1=O
4	-3[16.7 µM]	CC(C)NC(=O)Nc1ccc2c(c1)CC(=O)N([C@@H](C)CO)C[C@H](C)[C@@H](CN(C)C(=O)Nc1ccc3c(c1)OCO3)O2
-1	8[16.7 µM]	C[C@@H]1CN([C@H](C)CO)C(=O)Cc2cc(N(C)C)ccc2O[C@@H]1CN(C)C(=O)Nc1ccccc1

# In another format: results already given.
structure	UUG fidelity	HIV Env fusion
C[C@@H]1CN([C@H](C)CO)C(=O)Cc2cc(N(C)C)ccc2O[C@@H]1CN(C)C(=O)Nc1ccccc1	-1	8[16.7 µM]
Cc1noc(C)c1NC(=O)Nc1ccc2c(c1)C(=O)N([C@@H](C)CO)C[C@@H](C)[C@@H](CN(C)S(=O)(=O)c1ccccc1)OCCCC[C@@H](C)O2	-1	-99[16.7 µM]

# Next structures follow:
UUG fidelity	HIV Env fusion	Molecule
11	5[16.7 µM]	CN1C(=O)c2cc(NC(=O)Nc3cccc(Cl)c3)ccc2OC[C@H]2O[C@@H](CC(=O)O)CC[C@@H]21
-2	-8[16.7 µM]	CO[C@H]1CN(C)C(=O)c2cc(NS(=O)(=O)c3cccc(C)c3)ccc2OC[C@@H](C)NC[C@H]1C
15	-7[16.7 µM]	COc1ccc(S(=O)(=O)Nc2ccc3c(c2)CC(=O)N([C@H](C)CO)C[C@H](C)[C@@H](CN(C)C(=O)Nc2ccc4c(c2)OCO4)O3)cc1
4	5[16.7 µM]	C[C@H](CO)N1C[C@H](C)[C@H](CN(C)S(=O)(=O)c2ccccc2)Oc2ncc(-c3cc4ccccc4o3)cc2C1=O
0	12[16.7 µM]	CCCNC(=O)N(C)C[C@H]1Oc2ncc(C#CC3(O)CCCC3)cc2C(=O)N([C@H](C)CO)C[C@H]1C
-12	8[16.7 µM]	C[C@@H]1CN([C@@H](C)CO)C(=O)c2cc(-c3cccnc3)cnc2O[C@@H]1CN(C)Cc1ccc(Oc2ccccc2)cc1
-9	13[16.7 µM]	Cc1noc(C)c1S(=O)(=O)Nc1ccc2c(c1)C(=O)N([C@@H](C)CO)C[C@@H](C)[C@@H](CN(C)C(=O)Nc1ccc(C(F)(F)F)cc1)OCCCC[C@@H](C)O2
35	-23[16.7 µM]	C[C@@H]1CCCCO[C@H](CN(C)S(=O)(=O)c2ccc(F)cc2)[C@H](C)CN([C@@H](C)CO)C(=O)c2cc(NS(=O)(=O)c3ccccc3)ccc2O1
36	-40[16.7 µM]	C[C@@H]1CCCCO[C@H](CN(C)Cc2ccc3c(c2)OCO3)[C@@H](C)CN([C@@H](C)CO)C(=O)c2cc(NC(=O)NC3CCCCC3)ccc2O1
-2	-15[16.7 µM]	C[C@H]1CN([C@@H](C)CO)C(=O)c2cc(-c3ccncc3)cnc2O[C@H]1CN(C)C(=O)CN1CCOCC1
2	-20[16.7 µM]	C[C@H]1CN([C@@H](C)CO)C(=O)c2cc(-c3cccnc3)cnc2O[C@H]1CN(C)C(=O)NC1CCCC1
-4	-12[16.7 µM]	C[C@H](CO)N1C[C@H](C)[C@@H](CN(C)S(=O)(=O)c2cn(C)cn2)Oc2ccc(NC(=O)CCN3CCOCC3)cc2CC1=O
-6	7[16.7 µM]	O=C(NCc1ccccc1)[C@@]1(Cc2ccccc2)COC(c2ccc(OCCCO)cc2)=N1
7	2[16.7 µM]	CCCN(C)C[C@H]1Oc2ncc(C#Cc3ccccc3OC)cc2C(=O)N([C@H](C)CO)C[C@H]1C
-2	-22[16.7 µM]	CCS(=O)(=O)NCC[C@H]1CC[C@H](NC(=O)C2CCCC2)[C@@H](CO)O1
-4	31[16.7 µM]	CC(C)CC#Cc1ccc2c(c1)O[C@@H](CN(C)C(=O)Cc1ccccc1)[C@@H](C)CN([C@H](C)CO)S2(=O)=O
-16	-25[16.7 µM]	C[C@H]1CN([C@@H](C)CO)S(=O)(=O)c2ccc(-c3ccncc3)cc2O[C@@H]1CN(C)C(=O)C1CC1
5	-26[16.7 µM]	C[C@@H]1CN([C@@H](C)CO)C(=O)Cc2cc(NC(=O)C3CC3)ccc2O[C@H]1CN(C)CC1CC1
9	-30[16.7 µM]	COc1ccc(CN(C)C[C@H]2OCCCC[C@H](C)Oc3ccc(NC(=O)c4ccccc4)cc3C(=O)N([C@H](C)CO)C[C@@H]2C)cc1
-8	-4[16.7 µM]	O=C(O)C[C@@H]1C[C@H]2c3cc(NC(=O)NC4CCCC4)ccc3O[C@H]2[C@@H](CO)O1
8	-3[16.7 µM]	CO[C@H]1CN(C)C(=O)c2ccc(NC(=O)NC(C)C)cc2OC[C@@H](C)N(C(=O)C2CCC2)C[C@@H]1C

# Looked up above:
# COc1ccc(S(=O)(=O)Nc2ccc3c(c2)CC(=O)N([C@H](C)CO)C[C@H](C)[C@@H](CN(C)C(=O)Nc2ccc4c(c2)OCO4)O3)cc1 – HIV Env fusion = -7[16.7 µM]
# CN1C(=O)c2cc(NC(=O)Nc3cccc(Cl)c3)ccc2OC[C@H]2O[C@@H](CC(=O)O)CC[C@@H]21 – HIV Env fusion = 5[16.7 µM]
# Cc1noc(C)c1S(=O)(=O)Nc1ccc2c(c1)C(=O)N([C@@H](C)CO)C[C@@H](C)[C@@H](CN(C)C(=O)Nc1ccc(C(F)(F)F)cc1)OCCCC[C@@H](C)O2 – HIV Env fusion = 13[16.7 µM]
# C[C@H]1CN([C@@H](C)CO)C(=O)c2cc(-c3cccnc3)cnc2O[C@H]1CN(C)C(=O)NC1CCCC1 – HIV Env fusion = -20[16.7 µM]

# Screens: PubChem, Broad Institute

# The list is partial; the hit share may differ from the screen's.
